Bioassay records deposited in PubChem by several laboratories.
RanGTP-Impb inh = disruptors of Ran-importin-beta complex formation – biochemical, FRET, CFP-Ran, YFP-importin-beta, homogeneous, primary screen; cell-free CFP-Ran/YFP-importin-beta FRET ratio; inhibition, % (no concentration beside the values); 300,000 compounds, 1.1% hits;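 active means most replicates above 15%; inconclusive means exactly half above 15%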;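 further: 0% = DMSO wells and 100% = Ran loaded with GDP instead of GTP; wells of about 40 µL received 100 nL stock; the first replicate is given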
Vif TR-FRET = inhibitors of Vif binding to APOBEC3G peptide, primary screen, biochemical, TR-FRET, GST-Vif 1-94, biotin-A3G peptide, dose response retest (AID 1117319); TR-FRET GST-Vif / biotin-A3G peptide binding; higher % means a stronger effect; test concentration not given here; strong numbers were not always called active; 260,000 compounds, 0.57% hits; inhibition, %, or IC50 in µM where a hit was titrated;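 active means above the screen mean plus three standard deviations and confirmed in dose response; inconclusive means results disagree or hit not tested in dose response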;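 further: Vif residues 1-94 fused to GST binding biotinylated APOBEC3G peptide 110-148; 0% = full assay without inhibitor and 100% = GST in place of GST-Vif; retest series ran down from 100 µM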
ALR H2O2 inh = human ALR oxidase inhibition via reduced H2O2. 290,000 compounds, 3.8% hits. P55789. inhibition, % (test concentration not listed). purified ALR, DTT oxidation, H2O2 HRP-luminol luminescence;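 active means mean and each replicate at 75% or more; inconclusive means only one of the two met; inactive means neither met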;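 further: stock transfer was 7.5 nL into about 7.5 µL; 0% = neutral wells and 100% = wells with inactivated enzyme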
Target sequence (P55789 whole entry, looked up): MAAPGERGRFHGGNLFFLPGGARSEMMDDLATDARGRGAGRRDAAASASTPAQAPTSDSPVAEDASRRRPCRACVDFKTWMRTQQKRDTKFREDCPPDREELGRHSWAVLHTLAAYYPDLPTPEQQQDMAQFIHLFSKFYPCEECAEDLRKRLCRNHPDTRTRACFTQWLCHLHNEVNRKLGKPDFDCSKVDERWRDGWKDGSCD
Calb FLC = C. albicans growth modulation with fluconazole. 300,000 compounds, 0.57% hits. C. albicans CaCi-2 (fluconazole-resistant clinical isolate) + fluconazole, Alamar Blue growth, 48 h. growth inhibition, % (concentration not given with the values);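 active means most replicates above 75%; inconclusive means exactly half above 75%; inactive means most below 75%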;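 further: all wells also contain fluconazole at 8 µg/ml as a sub-toxic cotreatment; 0% = median of DMSO wells and 100% = median of geldanamycin control wells; wells of about 8 µL received 7.5 nL stock; the first replicate is given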
LANA-H2A inh = blocks KSHV LANA binding to histone H2A/H2B. Q9QR71. inhibition, % (test concentration not listed). cell-free LANA-H2A/H2B peptide, fluorescence polarization. 320,000 compounds, 0.6% hits; in the data active means inhibition mostly above about 10%, no sharp cut-off; inactive means mostly below about 6.7%;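 further: stock transfer was 7.5 nL into about 10 µL; 0% = median of vehicle wells and 100% = median of positive control wells; one replicate is shown; the record names a cut of 25% in any replicate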
HNF4A DNA FP = change in binding of human HNF4 alpha to DNA; HNF4a-FITC DNA binding, fluorescence polarization, 1 h; activity change, % at 10 µM; 360,000 compounds, 0.3% hits; AID 1224865; in the data active means activity change above about 30%, passing the limit was not always enough;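 further: controls were the assay level and a saturating level of protein; the project sought stronger binding though the title names inhibitors; some compounds called inactive have numbers as strong as hits; positive values seem to mean higher polarization but the record does not say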
Beta2AR agonist = activates human beta-2 adrenergic receptor causing internalization | Am2.2-beta2AR cells, FAP receptor internalization, flow cytometry; reference of the scale not given here | response, % (test concentration not listed) | 340,000 compounds, 0.43% hits | AID 504454;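 active means response above a set limit, near 3 SD of response in nonfluorescent compounds, cut at about 42% in these data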;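 further: stock transfer was 100 nL into about 11 µL; a reference agonist was the positive control; negative values mostly stem from fluorescent compounds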
Target sequence (P07550 whole entry, looked up): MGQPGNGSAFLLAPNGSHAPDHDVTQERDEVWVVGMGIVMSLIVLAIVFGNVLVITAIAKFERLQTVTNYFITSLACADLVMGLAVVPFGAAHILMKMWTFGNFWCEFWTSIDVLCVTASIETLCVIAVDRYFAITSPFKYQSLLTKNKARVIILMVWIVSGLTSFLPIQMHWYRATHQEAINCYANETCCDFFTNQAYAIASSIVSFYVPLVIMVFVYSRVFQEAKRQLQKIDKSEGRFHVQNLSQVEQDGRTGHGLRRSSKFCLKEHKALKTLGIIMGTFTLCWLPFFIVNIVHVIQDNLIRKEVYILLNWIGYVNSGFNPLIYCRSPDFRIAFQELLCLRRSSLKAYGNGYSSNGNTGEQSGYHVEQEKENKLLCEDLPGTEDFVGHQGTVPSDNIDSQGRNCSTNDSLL
An asterisk follows results filed as active; u = inconclusive; x = not tested or not shown; & = joins results of further samples.

SMILES	RanGTP-Impb inh	Vif TR-FRET	ALR H2O2 inh	Calb FLC	LANA-H2A inh	HNF4A DNA FP	Beta2AR agonist
COc1cccc(-n2c(C)cc(/C=C3/C(=N)N4C(=NC3=O)SN=C4S(C)(=O)=O)c2C)c1	u	18%	97*	48	0.9	18	-5
COc1ccc(CCNC(=O)CSc2ccc(-c3ccncc3)nn2)cc1	2.5	8%	2	-4	-0.2	-0.6	-7
Cc1nc2ncccn2c1-c1csc(Nc2ccc(N(C)C)cc2)n1	-3.7	27%	x	-4	x	-0.3	15
Cc1ccc(C(=O)NCC(=O)OCC(=O)Nc2ccccc2C#N)s1	0.2	x	-8	6	4.2	-2.1	-2
COC(=O)c1ccc(NC(=O)CSc2nnc(COc3ccccc3)n2C)cc1	2.1	6%	x	-16	4.6	1.1	4
COc1ccc(C(=O)N/N=C/c2cn[nH]c2-c2ccc(OC)cc2OC)cc1	1.2	2%	2	7	-9.7	-0.2	-2
CS(=O)(=O)c1ccc(Cl)c(NC(=O)CSc2nncn2-c2ccccc2)c1	-3.3	4%	-1	9	-0.5	2.4	-14
Cc1ccsc1C(=O)NCCc1ccco1	x	7%	39	x	-0.5	-7.6	4
O=C(C1CCCN1S(=O)(=O)c1ccc(Br)cc1)N1CCOCC1 (stereo not given)	-2.5	-12%	-2	16	0.5	1.6	-6
COc1ccc(Cl)cc1NC(=O)CN(C)C(=O)c1cc(=O)c2ccccc2o1	x	-4%	-6	x	-1.1	3.6	7
CCC(=O)Nc1cccc(-c2nnc(SCC(=O)NCc3ccco3)n2C)c1	5.4	0%	-4	11	-2.9	2.5	1
Cc1ccc2c(c1)NC(c1cccs1)C1=C(CC(C)(C)CC1=O)N2 (stereo not given)	-5.9	7%	x	1	8.0	0.8	4
COc1ccc(NC(=O)/C=C/c2ccc(S(=O)(=O)N3CCOCC3)cc2)cc1	x	73%	-2	x	0.3	-0.5	17
CCCn1c(SCC(=O)Nc2sc(C)c(C)c2C(=O)OCC)nc2c1c(=O)n(C)c(=O)n2C	1.4	3%&1%	-21	u	-5.1	0.9	6
CN1CCN(C(CNC(=O)Nc2ccc(Cl)cc2)c2ccc(F)cc2)CC1 (stereo not given)	1.7	-3%	-12	-7	-0.5	4.2	15
CC(=O)c1cn(N(C)c2ncc(C(F)(F)F)cc2Cl)c(=O)[nH]c1=O	0.1	-2%	-13	-2	2.5	-1.1	-4
Fc1ccccc1COc1ccc(Br)cc1CNCc1cccnc1	2.3	x	2	7	-1.5	-7.2	8
Cc1c(C)n(Cc2ccccc2)c2ccc(C(=O)O)cc12	2.1	x	0	0	4.7	-0.5	8
O=C(NCC1CCCO1)NC1(C(F)(F)F)Oc2ccccc2O1 (stereo not given)	-2.4	11%	-1	-5	-5.3	-3.5	1
C/C(=N\NC(=O)CNc1cccc(C(F)(F)F)c1)c1ccc(Br)cc1	u	x	-12	9	4.1	0.4	4
Cc1cccc(NC(=S)NC2CCCC2)c1C	-2.8	x	x	5	-1.5	1.3	9
CN(C(=O)c1ccc(NC(=O)Cc2ccc(NC(=O)C3CCCN(C(=O)C4CCCC4)C3)cc2)cc1)C1CC1 (stereo not given)	x	x	14	x	-1.4	4.2	41
CN1CCC(CC(C(=O)N2CCCC2)(c2ccccc2)c2ccccc2)C1 (stereo not given)	x	-10%	x	x	x	0.8	-3
O=C(c1ccncc1)N1CCN(S(=O)(=O)c2ccccc2F)CC1	x	3%	1	x	0.7	2.8	-11
Cc1cc(=O)[nH]c(S/C=C/c2ccccc2)n1	-1.0	0%	98*	25	7.3	0.5	6
Cc1noc2ncnc(Sc3c(Cl)cccc3Cl)c12	u	0%	0	1	-0.5	0.5	11
CC1CC(C)CN(S(=O)(=O)CC23CCC(CC2=O)C3(C)C)C1 (stereo not given)	1.0	x	-4	35	6.6	0.7	4
COc1ccc(S(=O)(=O)/N=C2\C=C(Nc3ccc(O)cc3)C(=O)c3ccccc32)cc1	4.0	x	x	-9	-1.1	0.9	52*
O=C(COC(=O)c1ccc(Cl)nc1)NNC(=O)c1ccc(Br)cc1	x	4%	-1	x	4.2	3.8	-4
O=C(O)COn1c(-c2ccccc2)nc2ccc(Cl)cc21	2.1	1%	-14	-20	-0.7	3.7	2
Nc1nc(Cl)cc(Oc2ccc(Cl)cc2)n1	-0.1	2%	-21	-17	-2.0	-0.2	-1
COc1ccc(CN2CCN(c3ncccn3)CC2)c(OC)c1	-2.9	-2%	-8	-27	0.7	-1.1	-1
COc1ccc(-n2c(O)c(C=NCc3ccccn3)c3ccccc3c2=O)c(OC)c1	-0.8	u	-17	-3	4.7	2.0	0
CCCC(=O)N(c1ccc(F)cc1)C1C=CS(=O)(=O)C1 (stereo not given)	0.0	1%	-5	-4	-3.2	0.5	3
COc1ccc(C(=O)Oc2cccnc2)cc1OC	-1.5	-6%	x	5	-2.7	0.0	1
O=C(NC1CCCCC1)C(c1cccnc1)N(C(=O)CCl)c1ccccc1Cl (stereo not given)	1.3	x	-7	-5	1.5	-1.4	3
O=C(C1=C[C@@H](c2csc3ccccc23)C[C@@H](OCCCCO)O1)N1CCN(Cc2ccc3c(c2)OCO3)CC1	2.6	11%	-12	13	-1.3	0.2	-2
Cc1cc(C)n(-c2ccc(C(=O)O)cc2[N+](=O)[O-])n1	-2.4	-7%	-3	0	3.9	0.0	7
CN(c1ccc(OCC(=O)OCC(=O)Nc2ccc(OC(F)F)cc2)cc1)S(=O)(=O)c1cccs1	x	x	4	x	2.2	-3.0	-3
CNC(=S)NNC(=O)Cc1ccc(OC)cc1	-2.1	-3%	43	-1	-2.6	2.3	0
Cc1ccc(NC(=O)c2noc(C(C)C)c2[N+](=O)[O-])cc1	-0.7	-3%	-11	92*	-8.7	-0.7	-2
O=S(=O)(NCc1csc(-c2cccnc2)n1)c1ccc2c(c1)OCCO2	-2.8	21%	-3	-15	-0.3	4.6	2
O=C(Nc1cccc(-c2csc(Nc3cccc(C(F)(F)F)c3)n2)c1)c1cc([N+](=O)[O-])cc(C(F)(F)F)c1	2.1	x	-3	-4	-0.1	3.1	2
CC1CCCCN1C(=O)CNCC1CCCO1 (stereo not given)	3.6	10%	-4	-17	-2.2	1.0	6
Cc1cnc(NC(=O)CSc2nnc(COc3c(C)cccc3C)o2)s1	-1.0	4%	-2	-5	0.3	-0.9	-2
COP1(=O)C[C@@H](O)[C@@H](O)[C@@H](COCc2ccccc2)O1 (stereo not given in full)	1.0	x	-2	3	6.7	5.4	5
CNC(=O)COc1ccc2oc3c(c2c1)CCCC3	-2.7	u	0	-11	-0.4	-0.1	-12
CCn1c2ccc(C)cc2c2nnc(SCCN3CCCCC3)nc21	-1.3	-10%	-5	0	-2.0	-3.2	-6
Cc1cc(C)n(C(=O)c2ccc([N+](=O)[O-])cc2Cl)n1	u	-7%	x	13	-6.7	0.9	-2
O=C(c1ccc(F)cc1F)N1CCN(c2ncccn2)CC1	4.0	-2%	-1	0	2.5	0.6	1
CCN(CC(=O)Nc1ccc(Br)c(C)c1)CC(=O)NC(C)C	0.0	1%	-18	1	-3.0	2.8	2
CC(C)(C)Cc1nnc(NC(=O)CSc2ccccc2)s1	1.0	-5%	-3	6	-3.7	-1.3	-3
COc1ccccc1CN1C(=NC(=O)CCC2CCCC2)SC2CS(=O)(=O)CC21 (stereo not given)	0.1	x	3	-1	4.2	2.2	-7
C[C@@H]1C=C(C(=O)O)O[C@H](OCc2ccc(CO)cc2)C1	-4.3	-3%	1	6	3.3	0.9	5
C=CCn1c(SCC(=O)N2CCCCCC2)nc2ccccc2c1=O	1.3	x	-6	6	2.5	6.5	-4
CN(Cc1ccccc1)C(=O)Cn1c(=O)c2cccn2c2cccnc21	2.9	x	3	-8	0.0	6.9	-5
CC(=O)N1c2ccc(S(=O)(=O)N3CCCC3)cc2CC1C(=O)NCc1cccc(F)c1 (stereo not given)	2.6	x	-2	3	-2.5	-3.9	2
O=C(CCCc1ccccc1)NCCN1CCOCC1	5.4	21%	-11	13	1.0	-0.6	3
C=CCOC(=O)C1=C(C)NC(=S)NC1c1cccs1 (stereo not given)	-1.2	x	-1	1	-2.7	-0.2	2
CCn1c(CNC(=O)Cc2ccc(OC)cc2)nnc1SCC(=O)NC1CCCCC1	0.8	u	-9	-3	-1.4	0.8	8
O=C(COc1ccc(Br)cc1)NC1CC1	0.2	x	0	-4	1.2	3.2	2
c1ccc(SCc2cn3cccnc3n2)nc1	3.4	11%	-1	1	-0.7	0.3	-2
CCCc1ncc(CN2CCC(C(=O)Nc3cccc(-c4cscn4)c3)CC2)cn1	2.6	x	-1	-11	11	1.8	-6

No new results follow: entries from further up.
SMILES	RanGTP-Impb inh	Vif TR-FRET	ALR H2O2 inh	Calb FLC	LANA-H2A inh	HNF4A DNA FP	Beta2AR agonist
O=C(c1ccc(F)cc1F)N1CCN(c2ncccn2)CC1	4.0	-2%	-1	0	2.5	0.6	1
CCN(CC(=O)Nc1ccc(Br)c(C)c1)CC(=O)NC(C)C	0.0	1%	-18	1	-3.0	2.8	2
CC(C)(C)Cc1nnc(NC(=O)CSc2ccccc2)s1	1.0	-5%	-3	6	-3.7	-1.3	-3
COc1ccccc1CN1C(=NC(=O)CCC2CCCC2)SC2CS(=O)(=O)CC21 (stereo not given)	0.1	x	3	-1	4.2	2.2	-7
C[C@@H]1C=C(C(=O)O)O[C@H](OCc2ccc(CO)cc2)C1	-4.3	-3%	1	6	3.3	0.9	5
C=CCn1c(SCC(=O)N2CCCCCC2)nc2ccccc2c1=O	1.3	x	-6	6	2.5	6.5	-4
CN(Cc1ccccc1)C(=O)Cn1c(=O)c2cccn2c2cccnc21	2.9	x	3	-8	0.0	6.9	-5
CC(=O)N1c2ccc(S(=O)(=O)N3CCCC3)cc2CC1C(=O)NCc1cccc(F)c1 (stereo not given)	2.6	x	-2	3	-2.5	-3.9	2
O=C(CCCc1ccccc1)NCCN1CCOCC1	5.4	21%	-11	13	1.0	-0.6	3
C=CCOC(=O)C1=C(C)NC(=S)NC1c1cccs1 (stereo not given)	-1.2	x	-1	1	-2.7	-0.2	2
CCn1c(CNC(=O)Cc2ccc(OC)cc2)nnc1SCC(=O)NC1CCCCC1	0.8	u	-9	-3	-1.4	0.8	8
O=C(COc1ccc(Br)cc1)NC1CC1	0.2	x	0	-4	1.2	3.2	2
c1ccc(SCc2cn3cccnc3n2)nc1	3.4	11%	-1	1	-0.7	0.3	-2
CCCc1ncc(CN2CCC(C(=O)Nc3cccc(-c4cscn4)c3)CC2)cn1	2.6	x	-1	-11	11	1.8	-6
